Six1-Eya2 blk: qHTS Assay for Inhibitors of the Six1/Eya2 Interaction | Homeobox protein SIX1 (Homo sapiens) + Protein phosphatase EYA2 (Homo sapiens), … | AlphaScreen GST-Six1/His-Eya2 binding, biochemical; active compounds read low; control for the full effect not named in the record | activity change, % (no concentration beside the values) | hit rate 0.56% among 360,000 | AID 651725, 2012; in the data active = activity change below about -65%; inconclusive = about -30% to -65%; inactive = above about -30%; also: % is scaled to controls: 0 for no effect and ±100 for the full control effect
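GST-Six1 + His-Eya2 (5X stock: 250/500 nM); Tris pH 8.0, 300 mM NaCl, 0.05% BSA, 0.02% Tween 20; GSH donor/Ni acceptor beads; 1 h 37 °C dark; AlphaScreen readout.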
D2 PAM: Beta-Arrestin HTS for Positive Allosteric Modulators of the Human D2 Dopamine Receptor: Potentiators. D(2) dopamine receptor (Homo sapiens), P14416. potentiation, % (no concentration beside the values). AID 624464, 2012. DiscoveRx D2 beta-arrestin cells, luminescence, 90 min; 100% = 57 uM dopamine signal. hit rate 0.23% among 360,000; active = potentiation of 50% or more; inconclusive = 30% to 50%; inactive = 30% or less;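 also: compound concentration not given in the record; tested on top of an EC20 dose of dopamine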
Target sequence (P14416 whole entry, looked up): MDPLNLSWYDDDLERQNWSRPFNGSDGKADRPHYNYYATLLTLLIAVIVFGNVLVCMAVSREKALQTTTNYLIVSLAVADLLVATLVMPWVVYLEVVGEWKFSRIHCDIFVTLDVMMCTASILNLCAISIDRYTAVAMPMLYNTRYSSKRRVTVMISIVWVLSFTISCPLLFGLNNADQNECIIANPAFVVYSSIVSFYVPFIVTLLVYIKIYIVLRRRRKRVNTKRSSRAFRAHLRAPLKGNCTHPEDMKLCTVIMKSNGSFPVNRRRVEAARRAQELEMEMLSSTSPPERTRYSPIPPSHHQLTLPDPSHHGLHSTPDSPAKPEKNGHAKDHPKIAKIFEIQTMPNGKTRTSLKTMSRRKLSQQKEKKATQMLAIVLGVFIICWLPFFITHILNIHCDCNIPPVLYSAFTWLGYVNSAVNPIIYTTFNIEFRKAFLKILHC
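D2 cells co-treated with compound plus 50 nM dopamine (EC20) for 90 min at 37 deg C to detect potentiation. Beta-arrestin recruitment was read as enzyme-fragment luminescence after 1 h at ambient temperature. Full response was set by 57 uM dopamine.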
D2 agonist: Beta-Arrestin HTS for Positive Allosteric Modulators of the Human D2 Dopamine Receptor: Agonists; hit rate 0.084% among 360,000; DiscoveRx PathHunter D2 beta-arrestin, luminescence, 90 min; 100% = 57 uM dopamine signal; activation, % (no concentration beside the values); AID 624465, 2012; D(2) dopamine receptor (Homo sapiens), P14416; in the data active = activation above about 40%; inconclusive = about 15% to 40%; inactive = below about 15%; also: compound concentration not given in the record; the text of the record calls up to 30% inactive
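DiscoveRx PathHunter D2 beta-arrestin cells (2,100/well) attached overnight, then compound-stimulated 90 min at 37 C in HBSS/10 mM HEPES/0.1% Tween-20 buffer; beta-galactosidase complementation read by luminescence after 1 h at ambient temperature. Dopamine 57 uM final (EC100) as control.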
CtBP-E1A inh: qHTS Assay for Inhibitors of the CtBP/E1A Interaction; CtBP / adenovirus E1A interaction (AlphaScreen); AlphaScreen GST-E1A/His-CtBP binding, 1536-well; active compounds read low; control for the full effect not named in the record; activity change, % (no concentration beside the values); hit rate 0.49% among 340,000; AID 651724, 2012; in the data active means activity change below about -65%; inconclusive means about -30% to -65%; inactive means above about -30%; also: % is scaled to controls: 0 for no effect and ±100 for the full control effect
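GST-E1A and His-tagged CtBP (125 nM each as 5X stock) were preincubated with pin-transferred compound for 2 h at 37 °C in the dark, then glutathione donor and nickel acceptor beads were added for 1 h before AlphaScreen reading.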
PINK1 modulator: A Quantitative High throughput Screen to Identify Chemical Modulators of PINK1 Expression; PINK1 immunofluorescence, high-content cytometry, 24 h; Potency, µM (top dose mostly 76.6 µM), inactives show at the highest dose activation (PINK1 increase), usual class: activators; hit rate 0.2% among 410,000; AID 624263, 2012; active = well fitted activation curve with a large enough effect; inconclusive = small, poorly fitted or top-dose-only effect; inactive = flat fitted curve, though single readings scatter; cell line not stated here;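 also: potency is read from the fitted curve at half-maximal effect; % of control where 0% means no effect; nearly all actives have a fitted effect of over 65% in size; a mitochondrial uncoupler was the plate control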
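Compound titrations (5 concentrations, 24 h) on a stable cell line; DMSO and CCCP controls. Endpoint: fixed-cell PINK1 immunofluorescence with mitochondrial, cell and nuclear markers, scanned by microplate cytometer.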
TRPML1 agonist: qHTS for Agonists of the Human Mucolipin Transient Receptor Potential 1 (TRPML1) | hit rate 0.12% among 410,000 | TRPML1-expressing cells, Ca2+ dye fluorescence, FDSS; host cell line not named in the record; reference of the full effect not given here | Mucolipin-1 (Homo sapiens), Q9GZU1 | activation, % (test concentration not listed); in the data active = activation above about 50%; inconclusive = about 30% to 50%; inactive = below about 30%; also: 0% is about no effect; the text of the record puts the active cut at 80%
Target sequence (Q9GZU1 whole entry, looked up): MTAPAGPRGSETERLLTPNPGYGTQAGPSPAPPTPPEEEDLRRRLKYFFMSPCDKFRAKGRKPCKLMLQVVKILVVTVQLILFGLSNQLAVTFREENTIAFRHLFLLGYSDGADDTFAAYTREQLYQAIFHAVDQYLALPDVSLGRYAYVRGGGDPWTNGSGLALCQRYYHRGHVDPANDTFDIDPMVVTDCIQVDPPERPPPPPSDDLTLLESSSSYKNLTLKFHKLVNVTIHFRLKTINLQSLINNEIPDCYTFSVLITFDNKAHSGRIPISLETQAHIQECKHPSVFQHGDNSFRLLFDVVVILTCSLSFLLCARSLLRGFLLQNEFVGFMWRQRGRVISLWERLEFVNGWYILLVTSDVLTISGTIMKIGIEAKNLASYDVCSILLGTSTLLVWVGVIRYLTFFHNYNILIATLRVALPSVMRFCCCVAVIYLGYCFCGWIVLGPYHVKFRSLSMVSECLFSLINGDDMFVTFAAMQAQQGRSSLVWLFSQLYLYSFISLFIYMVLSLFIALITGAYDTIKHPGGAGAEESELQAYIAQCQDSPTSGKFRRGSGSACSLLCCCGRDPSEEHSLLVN
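Agonist activity was taken from a 110 s kinetic Ca2+ dye read on the FDSS after pinning compounds onto TRPML1-DL cells. The cells were seeded at 1,500/well with Tet inducer, incubated about 16 h, then dye-loaded at room temperature.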
* marks the source's active call; other numbers are inactive results; & = joins results of further samples; [ ] = dose if it differs, or a comment. Compounds as they come. About 1.3% of those tested had a hit in this group.

`Cc1ccc(C(=O)N/C(=C/c2ccc(-c3cccc([N+](=O)[O-])c3)o2)C(=O)NC(C)(C)C)cc1` gave Six1-Eya2 blk 15.9, D2 PAM 2.7, D2 agonist 2.7, CtBP-E1A inh 0.0, PINK1 modulator -0.2% and TRPML1 agonist 1.5.
For CC(C)NC(=O)Cn1c(=O)cnc2ccccc21 the results were Six1-Eya2 blk 6.2, D2 PAM -4.1, D2 agonist -1.2, CtBP-E1A inh -0.8, PINK1 modulator -0.6% and TRPML1 agonist 0.5.
COc1cc(O)c(C=NN2C(=O)CSC2=S)c(OC)c1 was read as Six1-Eya2 blk -87.2*, D2 PAM -6.3, D2 agonist -0.4, CtBP-E1A inh inconclusive, PINK1 modulator 2.1% and TRPML1 agonist 0.2.
Screening Cc1ccc(-c2n[nH]c(=S)nc2-c2ccc(C)cc2)cc1 returned Six1-Eya2 blk 2.9, D2 PAM -35.5, D2 agonist 1.2, PINK1 modulator 0.9% and TRPML1 agonist 1.0.
Screening CNC(=O)c1sc(-c2ccccc2)nc1C returned Six1-Eya2 blk 0.1, D2 PAM -3.0, D2 agonist -1.3, CtBP-E1A inh 3.3, PINK1 modulator 2.7% and TRPML1 agonist -0.5.
Screening COc1ccc(-c2nc3ccccc3c(=O)n2N)cc1 returned Six1-Eya2 blk 5.4, D2 PAM -7.0, D2 agonist 4.4, CtBP-E1A inh -6.8, PINK1 modulator -1.5% and TRPML1 agonist -0.3.
Screening Nc1cccc(N2C(=O)c3cccc4c(N)ccc(c34)C2=O)c1 returned Six1-Eya2 blk -4.6, D2 PAM -21.2, D2 agonist -3.1, PINK1 modulator 4.7% and TRPML1 agonist 55.4*.
`O=C1CCC(C(=O)N2CCN(c3cnccn3)CC2)CN1CCc1ccc(Cl)cc1` (stereo not given) gave Six1-Eya2 blk -1.1, D2 PAM 8.1, D2 agonist 4.4, CtBP-E1A inh 3.8, PINK1 modulator -0.8% and TRPML1 agonist 0.5.
CCC(C)c1ccc(NC(=O)COC(=O)C2=COCCO2)cc1 (stereo not given) was read as Six1-Eya2 blk -2.5, D2 PAM 4.7, D2 agonist -2.2, CtBP-E1A inh 0.5, PINK1 modulator 1.6% and TRPML1 agonist 0.1.
Cc1ccccc1OCCn1cc(C(=O)C(=O)N2CCOCC2)c2ccccc21 was read as Six1-Eya2 blk 0.9, D2 PAM -3.2, D2 agonist -0.5, CtBP-E1A inh 7.5, PINK1 modulator 1.0% and TRPML1 agonist 0.8.
`Cc1ccccc1C(=O)c1c[nH]c(C(N)=O)c1` gave Six1-Eya2 blk 14.6, D2 PAM -0.5, D2 agonist 0.8, CtBP-E1A inh 7.4, PINK1 modulator 1.2% and TRPML1 agonist -0.3.
`Cc1ccc(CN2[C@@H](Cc3ccccc3)C(=O)CS2(=O)=O)cc1` gave Six1-Eya2 blk -6.3, D2 PAM -7.6, D2 agonist -2.2, CtBP-E1A inh 1.3, PINK1 modulator 0.4% and TRPML1 agonist -0.2&0.2.
Screening c1ccc(-c2ccc(-n3ccnc3)cc2)cc1 returned Six1-Eya2 blk -10.5, D2 PAM -4.3, D2 agonist -4.0, CtBP-E1A inh 8.6, PINK1 modulator -2.4%[38.3 µM] and TRPML1 agonist 0.5.
S=C1SCN(Cc2cccnc2)CN1Cc1ccccc1 was read as Six1-Eya2 blk -3.8, D2 PAM -4.8, D2 agonist -2.5, CtBP-E1A inh 5.3, PINK1 modulator 1.7% and TRPML1 agonist 0.8.
Screening O=C(Nc1ccc(C(=O)NCc2ccccc2Cl)cc1)C1=CSCCO1 returned Six1-Eya2 blk 4.0, D2 PAM -8.1, D2 agonist -2.3, CtBP-E1A inh -1.4, PINK1 modulator 2.5% and TRPML1 agonist 0.9.
`Cc1ccc(C)c(NC(=S)N2CCC(N(C)CC3CCCO3)CC2)c1` (stereo not given) gave Six1-Eya2 blk -0.1, D2 PAM -11.9, D2 agonist -3.0, CtBP-E1A inh 3.5, PINK1 modulator 4.3%[38.3 µM] and TRPML1 agonist -0.6.
For S=c1[nH]c2cc(-c3ccccc3)ccc2o1 the results were Six1-Eya2 blk 11.0, D2 PAM -2.4, D2 agonist -5.9, CtBP-E1A inh 2.1, PINK1 modulator 3.0% and TRPML1 agonist -0.2.
`Cc1cccc(C)c1NC(=O)CN(C)C(=O)C1=COCCO1` gave Six1-Eya2 blk -0.9, D2 PAM -5.7, D2 agonist -3.6, CtBP-E1A inh 8.0, PINK1 modulator 0.5% and TRPML1 agonist -0.5.
`CCCn1c(N)c(C(=O)CN(C)CC(=O)Nc2cc(C)ccc2C)c(=O)[nH]c1=O` gave Six1-Eya2 blk -5.4, D2 PAM -1.2, D2 agonist -0.7, CtBP-E1A inh -0.1, PINK1 modulator -2.2% and TRPML1 agonist 0.2.
`COc1ccc(NC(=O)c2cccs2)cc1OC` gave Six1-Eya2 blk -2.3, D2 PAM -2.9, D2 agonist -2.5, CtBP-E1A inh -1.7, PINK1 modulator 4.2%[38.3 µM] and TRPML1 agonist -0.2.
O=C(O)COc1ccccc1/C=C1\SC(=S)N(c2cccnc2)C1=O was read as Six1-Eya2 blk -9.8, D2 PAM -1.9, D2 agonist -3.1, CtBP-E1A inh inconclusive, PINK1 modulator 2.4% and TRPML1 agonist 1.9.
`CC(=O)OC1=Cc2c(ccc3ccc(=O)oc23)OC1(C)C` gave Six1-Eya2 blk -12.3, D2 PAM -1.6, D2 agonist -1.7, CtBP-E1A inh -0.7, PINK1 modulator 0.0% and TRPML1 agonist 1.9.
`O=C(Nc1cccc(Cl)c1)C1COc2ccccc2O1` (stereo not given) gave Six1-Eya2 blk 3.1, D2 PAM -1.2, D2 agonist -5.7, CtBP-E1A inh 23.3, PINK1 modulator 2.3% and TRPML1 agonist 2.5.
CC(=O)C1=C(O)C(=O)N(CCC(=O)O)C1c1ccccc1[N+](=O)[O-] (stereo not given) was read as Six1-Eya2 blk 16.7, D2 PAM 5.4, D2 agonist 0.2, CtBP-E1A inh -2.9, PINK1 modulator -1.4% and TRPML1 agonist 0.7.

The list goes on; it opens with the two that closed the last part.
`O=C(Nc1cccc(Cl)c1)C1COc2ccccc2O1` (stereo not given) gave Six1-Eya2 blk 3.1, D2 PAM -1.2, D2 agonist -5.7, CtBP-E1A inh 23.3, PINK1 modulator 2.3% and TRPML1 agonist 2.5.
CC(=O)C1=C(O)C(=O)N(CCC(=O)O)C1c1ccccc1[N+](=O)[O-] (stereo not given) was read as Six1-Eya2 blk 16.7, D2 PAM 5.4, D2 agonist 0.2, CtBP-E1A inh -2.9, PINK1 modulator -1.4% and TRPML1 agonist 0.7.
Screening CC(C)C1C(=O)N(Cc2cn(CCC3OCCCO3)nn2)CCS(=O)(=O)N1Cc1ccc(-c2ccc(Cl)nc2)cc1 (stereo not given) returned Six1-Eya2 blk -0.3, D2 agonist 5.4, CtBP-E1A inh 1.1 and PINK1 modulator 3.1%.
`CC(C)(C)OC(=O)C[C@@H]1C/C=C\C[C@H](CC(=O)N(CCO)Cc2ccccc2)C(=O)N[C@@H](Cc2ccccc2)COC1=O` gave Six1-Eya2 blk -0.3, D2 PAM -7.5, D2 agonist -6.9, CtBP-E1A inh 4.3, PINK1 modulator -1.0% and TRPML1 agonist -0.1.
`CCN(CC)P1(=O)OC(c2cc(OC)c(OC)c(OC)c2)=Nc2c1c(C)nn2-c1ccccc1` (stereo not given) gave Six1-Eya2 blk -2.8, D2 PAM -0.4, D2 agonist 0.4, CtBP-E1A inh 1.8, PINK1 modulator 8.3%[38.3 µM] and TRPML1 agonist 0.4.
Screening COCCNC(=O)c1c(CSc2ccc(Cl)cc2)noc1C(=O)NCc1ccccc1 returned Six1-Eya2 blk 5.2, D2 PAM -9.0, D2 agonist -2.3, CtBP-E1A inh -0.2, PINK1 modulator 2.0% and TRPML1 agonist 0.6.
For Clc1ccc2[nH]c(-c3ccccc3)cc2c1 the results were Six1-Eya2 blk 12.6, D2 PAM -0.7, D2 agonist -0.3, CtBP-E1A inh 5.5, PINK1 modulator 5.6% and TRPML1 agonist 0.3.
For COc1ccc(-n2nnnc2SCC(=O)c2ccc(OC)c(OC)c2)cc1 the results were Six1-Eya2 blk -0.9, D2 PAM 13.8, D2 agonist 3.7, CtBP-E1A inh -1.9, PINK1 modulator -0.9%[38.3 µM] and TRPML1 agonist 4.8.
`CN(C)c1ccc(S(=O)(=O)N(C)C)cc1[N+](=O)[O-]` gave Six1-Eya2 blk 2.9, D2 PAM -10.3, D2 agonist -3.3, CtBP-E1A inh -3.8, PINK1 modulator -0.1% and TRPML1 agonist -0.5.
Screening Cc1ccc(S(=O)(=O)NCCCNS(=O)(=O)c2ccc(C)cc2)cc1 returned Six1-Eya2 blk 0.4, D2 PAM -11.2, D2 agonist 0.1, CtBP-E1A inh 11.5, PINK1 modulator -0.9% and TRPML1 agonist 0.3.
CC1(C(=O)NS(=O)(=O)c2ccc(Cl)s2)CCN1C(=O)Cc1ccc(Cl)cc1Cl (stereo not given) was read as Six1-Eya2 blk 5.4, D2 PAM -19.8, D2 agonist 3.2, CtBP-E1A inh 2.3, PINK1 modulator 1.5% and TRPML1 agonist -0.6.
`COc1cc(NS(=O)(=O)c2ccc(NC(=O)COc3ccccc3C)cc2)nc(OC)n1` gave Six1-Eya2 blk 2.4, D2 PAM -17.3, D2 agonist -3.7, CtBP-E1A inh 54.9, PINK1 modulator 4.4%[38.3 µM] and TRPML1 agonist -0.2.
Cc1ccc(-c2nc(NC(=O)CSc3cc(C)c4ccccc4n3)ns2)cc1 was read as Six1-Eya2 blk 5.3, D2 PAM -3.0, D2 agonist -3.3, CtBP-E1A inh 6.8, PINK1 modulator 2.7%&2.3% and TRPML1 agonist 0.6&0.4.
For COc1ccc(NC(=O)CN2C(=O)NC(C)(Cc3ccc(OC)c(OC)c3)C2=O)cc1 (stereo not given) the results were Six1-Eya2 blk -1.2, D2 PAM -8.0, D2 agonist 1.4, CtBP-E1A inh -6.3, PINK1 modulator 0.2% and TRPML1 agonist -0.5.
Cc1ccc(C(C)n2cc(C(=O)NCc3ccccn3)nn2)cc1 (stereo not given) was read as Six1-Eya2 blk 2.8, D2 PAM -6.7, D2 agonist -0.1, CtBP-E1A inh -9.6 and PINK1 modulator 0.1%.
Screening COc1cccc(C(=O)NC2CCCc3ccccc32)c1OC (stereo not given) returned Six1-Eya2 blk -0.8, D2 PAM 1.2, D2 agonist 3.8, CtBP-E1A inh -11.5, PINK1 modulator 1.8% and TRPML1 agonist -0.5.
Screening O=C(CSc1nc(-c2ccccc2)ns1)NCC1CCCO1 (stereo not given) returned Six1-Eya2 blk -6.2, D2 PAM 0.7, D2 agonist -5.1, CtBP-E1A inh -6.8, PINK1 modulator -1.0% and TRPML1 agonist -0.9.

Compound activity from PubChem BioAssay.
